Compound activity from PubChem.
UUG fidelity: yeast start codon fidelity modulation; S. cerevisiae UUG-firefly luciferase reporter, luminescence/redox ratio; activity score, % at 18.7 µM; actives 0.13% (n = 350,000); AID 602363;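 active = replicate mean at a twofold rise or more, about +100% in these data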;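 also: firefly luciferase made from a UUG start codon reports start codon fidelity; reporter light over untreated wells divided by growth signal over untreated wells; some hits fall short of that in this replicate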
* = called active by the depositor; & = joins results of further samples. An excerpt; the hit share may differ from the screen's.

UUG fidelity,molecule
24.7,COc1ccc(CNC(=O)C[C@H]2C[C@@H]3c4cc(NS(=O)(=O)c5ccc(F)cc5)ccc4O[C@@H]3[C@@H](CO)O2)cc1
10.6,CC(C)NC(=O)N1[C@H](CO)[C@H]2c3ccccc3N(C(=O)Nc3ccc(F)cc3)C[C@H]21
-18.1,COc1ccccc1NC(=O)N1CC[C@@H]2[C@H]1c1cc(-c3ccccc3)ccc1N(C)[C@H]2CO
3.9,CCCC(=O)Nc1ccc2c(c1)C(=O)N(C)C[C@@H](OC)[C@H](C)CN(C(=O)CN(C)C)[C@H](C)CO2
3.1,CN(C)CCCNC(=O)C[C@@H]1CC[C@@H]2[C@H](COc3ccc(NC(=O)C4CCC4)cc3C(=O)N2C)O1
5.2,CN1[C@H](CO)[C@@H]2c3ccccc3N(C(=O)C3CCOCC3)C[C@@H]21
0.5,CCC(=O)N1C[C@H](C)[C@@H](OC)CN(C)C(=O)c2cc(NC(=O)C3CCCCC3)ccc2OC[C@H]1C
1.0,C[C@H](CO)N1C[C@H](C)[C@@H](CN(C)Cc2ccc(-c3ccccc3)cc2)Oc2c(NC(=O)c3cnccn3)cccc2C1=O
-2.6,C[C@H](O)C#Cc1ccc([C@H]2[C@@H](CO)N3CCCCN(C(=O)c4cccc(F)c4)C[C@@H]23)cc1
38.9,CCNC(=O)[C@H]1[C@H](CO)[C@H]2Cn3c(ccc(-c4cccc(OC)c4)c3=O)[C@H]2N1Cc1nccs1
2.2,COCC(=O)N1C[C@@H]2[C@H](c3ccccc31)[C@H](CO)N2Cc1ccccc1Cl
8.2,CO[C@@H]1CN(C)C(=O)c2cc(NS(C)(=O)=O)ccc2OC[C@H](C)N(CC2CCCCC2)C[C@@H]1C
11.9,C[C@@H]1CN([C@H](C)CO)C(=O)CCCn2nncc2CO[C@@H]1CN(C)S(=O)(=O)c1ccc(-c2ccccc2)cc1
12.1,COc1ccc(NC(=O)N(C)C[C@@H]2Oc3ccc(NC(=O)Nc4ccccc4)cc3C(=O)N([C@@H](C)CO)C[C@@H]2C)cc1
6.3,CC(C)NC(=O)N1[C@@H](CO)[C@@H]2c3ccccc3N(C(=O)Nc3cccc(Cl)c3)C[C@@H]21
19.5,CN(C)CC#Cc1ccc([C@H]2[C@@H](CO)N3CCCCN(C(=O)Nc4ccc(F)cc4)C[C@@H]23)cc1
-0.7,CCC(=O)N1C[C@@H]2[C@H](c3ccccc31)[C@H](CO)N2Cc1cc(F)ccc1F
0.0,Cc1ccc(S(=O)(=O)N(C)C[C@H]2Oc3ccc(NC(=O)CCN4CCOCC4)cc3C(=O)N([C@H](C)CO)C[C@@H]2C)cc1
0.2,COCC(=O)N1C[C@H](C)[C@H](OC)CN(C)C(=O)c2ccc(NC(=O)c3cc(C)on3)cc2OC[C@@H]1C
7.2&3.0,CC(=O)N(C[C@H]1N[C@H](CO)[C@@H]1c1ccc(-c2cccnc2)cc1)C1CCCC1
-1.5,COc1ccc(CN(C)C[C@@H]2Oc3ccc(NC(=O)CCN4CCOCC4)cc3CC(=O)N([C@@H](C)CO)C[C@H]2C)cc1
1.2,CO[C@@H]1CN(C)C(=O)c2cc(NC(=O)c3nc4ccccc4s3)ccc2OC[C@H](C)NC[C@H]1C
1.5,CO[C@@H]1CN(C)C(=O)c2cc(NC(C)=O)ccc2OC[C@@H](C)N(C(=O)C2CCC2)C[C@@H]1C
-1.2,COc1cccc(C(=O)N2C[C@H]3[C@@H](c4ccccc42)[C@@H](CO)N3C(=O)NC(C)C)c1
-4.6,O=C(C[C@@H]1CC[C@H]2[C@@H](COC[C@@H](O)CN2CC2CCOCC2)O1)N1CCOCC1
19.4,CC(C)(O)C#Cc1ccc([C@@H]2[C@H]3CN(C(=O)c4cccc(F)c4)CCCCN3[C@H]2CO)cc1
15.9,COCC#Cc1ccc([C@H]2[C@H](CO)N3CCCCN(C(=O)COC)C[C@@H]23)cc1
2.1,C[C@@H]1CN([C@H](C)CO)C(=O)Cc2cc(NC(=O)c3ccncc3)ccc2O[C@@H]1CN(C)Cc1ccc(Oc2ccccc2)cc1
-4.7,Cn1cnc(CCNC(=O)C[C@H]2CC[C@H]3[C@@H](COC[C@@H](O)CN3C(=O)Nc3ccc(Cl)cc3)O2)c1
-11.1,COc1ccc(CN(C)C[C@H]2Oc3ccc(NS(=O)(=O)c4cn(C)cn4)cc3C(=O)N([C@H](C)CO)C[C@@H]2C)cc1
-8.3,CN(C)CC(=O)N1CC[C@H]2[C@@H]1c1cc(Br)ccc1N(C)[C@H]2CO
-0.7,CN1c2ccc(Br)cc2[C@H]2[C@H](CCN2C(=O)Nc2ccc(F)cc2)[C@@H]1CO
-0.7,C[C@@H]1CN([C@@H](C)CO)C(=O)c2cc(N(C)C)ccc2O[C@@H]1CN(C)S(=O)(=O)c1ccc(Cl)cc1
-1.5,CO[C@@H]1CN(C)C(=O)c2ccc(NS(=O)(=O)c3cn(C)cn3)cc2OC[C@H](C)N(Cc2cccc(F)c2)C[C@@H]1C
-7.6,C[C@H](CO)N1C[C@H](C)[C@H](CN(C)C(=O)Nc2ccc(F)cc2)Oc2ccc(N(C)C)cc2CC1=O
-5.5,O=C(c1ccccc1F)N1C[C@@H]2[C@H](c3ccccc31)[C@@H](CO)N2Cc1ccc2c(c1)OCO2
-5.6,CO[C@H]1CN(C)C(=O)c2ccc(NC(=O)C3CC3)cc2OC[C@@H](C)N(C(=O)CN2CCOCC2)C[C@@H]1C
0.7,CO[C@H]1CN(C)C(=O)c2cc(NC(=O)C3CCOCC3)ccc2OC[C@H](C)N(Cc2nccs2)C[C@@H]1C
-15.1,COc1ccc(NC(=O)N(C)C[C@H]2Oc3ccc(NS(C)(=O)=O)cc3C(=O)N([C@@H](C)CO)C[C@H]2C)cc1
-11.6,COc1cccc(NC(=O)N2[C@H](CO)[C@@H](c3ccccc3)[C@H]2CNCC(C)C)c1
-8.7,C[C@@H]1CN([C@@H](C)CO)C(=O)Cc2cc(NC(=O)CCC(F)(F)F)ccc2O[C@H]1CN(C)C
-1.9,COc1ccccc1NC(=O)N1CCCCN2[C@@H](CO)[C@H](c3ccc(-c4cccc(C#N)c4)cc3)[C@@H]2C1
-10.7,O=C(C1CCOCC1)N1[C@@H](CO)[C@@H]2c3ccccc3NC[C@@H]21
-15.9,O=C(c1cccnc1)N1CC[C@@H]2[C@@H](CO)Nc3ccc(-c4cccc(F)c4)cc3[C@@H]21
-1.6,O=C(c1ccncc1)N1C[C@@H]2[C@H](c3ccccc31)[C@@H](CO)N2Cc1ccc(F)cc1
-23.3,C[C@H]1CN([C@@H](C)CO)C(=O)c2cc(NC(=O)Nc3ccc(C(F)(F)F)cc3)ccc2O[C@H]1CN(C)Cc1ccc(Oc2ccccc2)cc1
10.7,CO[C@H]1CN(C)C(=O)c2cc(NC(=O)Nc3ccccc3F)ccc2OC[C@H](C)N(CC2CC2)C[C@H]1C
14.7,CN1c2ccc(Br)cc2[C@H]2[C@H](CCN2C(=O)C2CC2)[C@@H]1CO
-6.3,O=C(C[C@@H]1CC[C@@H]2NC[C@@H](O)COC[C@H]2O1)Nc1ccccc1
-11.0,COc1cccc(CN2CCCCN3[C@H](C2)[C@@H](c2ccc(-c4cccnc4)cc2)[C@@H]3CO)c1

Next section:
UUG fidelity,molecule
39.1,C[C@H](CO)N1C[C@H](C)[C@H](CN(C)C(=O)Nc2ccccc2)Oc2c(NC(=O)NC3CCCCC3)cccc2C1=O
12.9,C[C@@H]1CN([C@H](C)CO)C(=O)c2cc(NS(=O)(=O)c3cccs3)ccc2O[C@@H]1CN(C)Cc1ccc(Oc2ccccc2)cc1
8.7,Cc1ccc(OC(=O)N(C)C[C@@H]2OCc3ccccc3-c3ccccc3C(=O)N([C@H](C)CO)C[C@H]2C)cc1
3.0,Cc1cccc(S(=O)(=O)N2C[C@H](O)COC[C@H]3O[C@H](CC(=O)N4CCN(C)CC4)CC[C@@H]32)c1
-3.0,COc1ccc(CN(C)C[C@@H]2Oc3c(NC(=O)Nc4ccc(C(F)(F)F)cc4)cccc3C(=O)N([C@@H](C)CO)C[C@@H]2C)cc1
0.1,Cc1noc(C)c1S(=O)(=O)Nc1ccc2c(c1)C(=O)N([C@@H](C)CO)C[C@@H](C)[C@@H](CN(C)C(=O)Nc1cccc3ccccc13)O2
2.4,O=C(C[C@@H]1C[C@@H]2c3cc(NC(=O)C4CCOCC4)ccc3O[C@@H]2[C@@H](CO)O1)NC1CCCCC1
-1.3,COC(=O)[C@@H]1[C@@H](CO)[C@@H]2Cn3c(ccc(C4=CCCCC4)c3=O)[C@@H]2N1C(=O)C1CC1
-8.8,COCC(=O)Nc1ccc2c(c1)C(=O)N(C)C[C@H](OC)[C@@H](C)CN(Cc1cccnc1)[C@@H](C)CO2
-7.8,CN(C)C(=O)c1ccc(-c2ccc3c(c2)[C@@H]2[C@@H](CCN2C(=O)c2ccccc2)[C@H](CO)N3)cc1
-4.3,C[C@@H]1CN([C@H](C)CO)C(=O)Cc2cc(NS(=O)(=O)c3ccc(F)cc3)ccc2O[C@H]1CN(C)CC1CC1
32.4,COCC(=O)N1CCCCN2[C@H](C1)[C@H](c1ccc(C#Cc3cccnc3)cc1)[C@@H]2CO
-1.8,COCC#Cc1ccc([C@H]2[C@H](CO)N3CCCCN(S(=O)(=O)c4ccccc4F)C[C@@H]23)cc1
-8.3,C[C@H](CO)N1C[C@H](C)[C@@H](CN(C)S(C)(=O)=O)Oc2ccc(NS(=O)(=O)c3cccs3)cc2C1=O
-0.3,O=C(c1ccc2c(c1)OCO2)N1C[C@H]2[C@@H](c3ccccc31)[C@@H](CO)N2CC1CCCC1
-10.6,CCC(=O)Nc1ccc2c(c1)C(=O)N(C)C[C@H](OC)[C@H](C)CN[C@H](C)CO2
-11.8,CO[C@H]1CN(C)C(=O)c2cc(NC(=O)C3CCC3)ccc2OC[C@H](C)NC[C@H]1C
-4.5,COc1ccc(NC(=O)Nc2ccc3c(c2)CC(=O)N([C@H](C)CO)C[C@H](C)[C@H](CN(C)C(=O)Nc2ccccc2)O3)cc1
9.7,O=C(C1CCC1)N1CCCCN2[C@H](CO)[C@@H](c3ccc(C#CC4CCCC4)cc3)[C@@H]2C1
-7.2,COc1ccc(C#Cc2ccc([C@@H]3[C@H](CO)N4CCCCN(C(=O)c5ccncc5)C[C@@H]34)cc2)cc1
-14.2,CC(C)NC(=O)N(C)C[C@@H]1Oc2ccc(NS(C)(=O)=O)cc2CC(=O)N([C@H](C)CO)C[C@@H]1C
-3.1,C[C@@H]1CN([C@H](C)CO)C(=O)c2cccc(NC(=O)Nc3ccc(F)cc3)c2O[C@@H]1CN(C)Cc1ccc(C(F)(F)F)cc1
-7.2,CN1C(=O)c2cc(NC(=O)C3CCCC3)ccc2OC[C@H]2O[C@H](CC(=O)O)CC[C@@H]21
-3.6,C/C=C/c1ccc([C@H]2[C@@H](CO)N(C(C)=O)[C@H]2CNC(=O)c2ccncc2)cc1
-4.1,C[C@@H]1CN([C@H](C)CO)C(=O)c2cccc(NS(=O)(=O)c3ccc(F)cc3)c2O[C@@H]1CN(C)CC1CCCCC1

Ordered by length of the SMILES (largest number first): three of the compounds above
UUG fidelity,molecule
-3.0,COc1ccc(CN(C)C[C@@H]2Oc3c(NC(=O)Nc4ccc(C(F)(F)F)cc4)cccc3C(=O)N([C@@H](C)CO)C[C@@H]2C)cc1
-0.3,O=C(c1ccc2c(c1)OCO2)N1C[C@H]2[C@@H](c3ccccc31)[C@@H](CO)N2CC1CCCC1
-10.6,CCC(=O)Nc1ccc2c(c1)C(=O)N(C)C[C@H](OC)[C@H](C)CN[C@H](C)CO2

Part of the list above, with each value named:
smiles: Cc1noc(C)c1S(=O)(=O)Nc1ccc2c(c1)C(=O)N([C@@H](C)CO)C[C@@H](C)[C@@H](CN(C)C(=O)Nc1cccc3ccccc13)O2
- UUG fidelity = 0.1
smiles: O=C(C[C@@H]1C[C@@H]2c3cc(NC(=O)C4CCOCC4)ccc3O[C@@H]2[C@@H](CO)O1)NC1CCCCC1
- UUG fidelity = 2.4
smiles: COC(=O)[C@@H]1[C@@H](CO)[C@@H]2Cn3c(ccc(C4=CCCCC4)c3=O)[C@@H]2N1C(=O)C1CC1
- UUG fidelity = -1.3
smiles: COCC(=O)Nc1ccc2c(c1)C(=O)N(C)C[C@H](OC)[C@@H](C)CN(Cc1cccnc1)[C@@H](C)CO2
- UUG fidelity = -8.8

Next section.
UUG fidelity,molecule
0.0,O=C(C[C@H]1CC[C@@H]2[C@H](COC[C@H](O)CN2CC2CCCCC2)O1)NCc1ccc(Cl)cc1
4.3,CO[C@@H]1CN(C)C(=O)c2ccc(NC(C)=O)cc2OC[C@H](C)N(Cc2ccc(F)cc2)C[C@H]1C
23.7,COc1cccc(-c2ccc3c(c2)[C@H]2[C@H](CCN2C(=O)Cc2ccccc2)[C@@H](CO)N3)c1
34.0,O=C(Nc1ccc(F)cc1)N1C[C@H]2[C@@H](c3ccccc31)[C@H](CO)N2C(=O)Cc1ccncc1
9.5,CO[C@H]1CN(C)C(=O)c2cc(NC(=O)C3CCC3)ccc2OC[C@@H](C)N(C(=O)CN(C)C)C[C@@H]1C
1.4,CC(=O)N1CCCCN2[C@H](CO)[C@@H](c3ccc(C#Cc4ccccc4F)cc3)[C@@H]2C1
-14.2,O=C(C1CC1)N1C[C@@H]2[C@H](c3ccccc31)[C@H](CO)N2C(=O)c1ccccn1
-0.9,O=C(C[C@H]1CC[C@@H]2[C@H](COC[C@H](O)CN2C(=O)c2ccc3c(c2)OCO3)O1)NC1Cc2ccccc2C1
29.5,CCN(C[C@H]1[C@H](c2ccc(-c3ccccc3)cc2)[C@H](CO)N1C(C)=O)C(C)=O
-0.5,C[C@@H]1CN([C@@H](C)CO)C(=O)c2cc(NS(=O)(=O)c3ccc(Cl)cc3)ccc2O[C@@H]1CN(C)C(=O)NC1CCCCC1
-20.5,Cc1noc(C)c1NC(=O)N(C)C[C@@H]1Oc2ccc(NS(C)(=O)=O)cc2C(=O)N([C@H](C)CO)C[C@H]1C
10.4,CO[C@H]1CN(C)C(=O)c2ccc(NC(=O)c3ccccc3F)cc2OC[C@H](C)N(C(=O)c2ccccc2F)C[C@@H]1C
